# HPGD inh = inhibitors of human 15-hydroxyprostaglandin dehydrogenase (HPGD) | AID 894 | Potency, µM, for the others: at the top dose activity change, negative = inhibition, actives largely listed as inhibitors | 4.3% of 150,000 active | purified HPGD, NADH fluorescence kinetic, PGE2 substrate | P15428; active = well fitted inhibition curve with a large enough effect (not every such curve was filed as active); inconclusive = small, poorly fitted or top-dose-only effect, or another doubt; inactive = no such curve, though single readings can be large or run the other way;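 further: top concentration of the series not given in the record; plate controls included wells without enzyme; inactives centre near -10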
# Target sequence (P15428 whole entry, looked up): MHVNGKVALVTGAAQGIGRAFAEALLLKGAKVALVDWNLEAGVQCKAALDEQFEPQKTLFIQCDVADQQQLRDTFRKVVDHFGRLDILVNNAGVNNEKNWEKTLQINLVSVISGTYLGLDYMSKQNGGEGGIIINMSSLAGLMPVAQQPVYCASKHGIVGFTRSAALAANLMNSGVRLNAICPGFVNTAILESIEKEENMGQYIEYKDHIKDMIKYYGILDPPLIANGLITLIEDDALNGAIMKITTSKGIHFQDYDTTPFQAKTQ
#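 NADH formation kinetics: reaction with 30 uM PGE2 and 1 mM NAD+ (final), 20 nM enzyme, Tris-HCl pH 8 with Tween 20, after 15 min compound preincubation at room temperature. Fluorescence change, last versus first of five reads.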
# * = called active by the depositor; ? = inconclusive; & = joins results of further samples. On the % scale 0 is the no-effect control and ±100 the full control effect; potency means the concentration at half of the fitted maximal effect. A portion of the library (hit frequency here may not be typical).
SMILES,HPGD inh
CC(O)Cc1nsc(NC(=O)c2cccs2)n1 (configuration not stated),-25%
O=C(Nc1cnn(Cc2c(Cl)cccc2Cl)c1)c1ccc([N+](=O)[O-])cc1,-15%
Nc1ncnc2c1ncn2[C@@H]1O[C@H](CO)C[C@@H]1O,-8%
COc1ccc2nccc(SCC(=O)O)c2c1,-12%
COc1cc2c(cc1NC(=O)CN1CCN(S(=O)(=O)c3ccc(C)cc3)CC1)oc1ccccc12,?
COC(=O)Cn1cnc2sc(C)c(S(=O)(=O)N3CCC(C)CC3)c2c1=O,-6%
CCCC[C@@H]1C[C@H]1[C@@H](NC(=O)c1ccco1)c1ccc(Cl)cc1,-24%
COc1cc(CNCCO)cc(Br)c1OCc1ccccc1Cl,-8%
CCC(C)c1c(O)nc(SCC(=O)Nc2ccccc2)[nH]c1=O (configuration not stated),-11%
CC(C)CCN1CC(O)=C(c2nc3ccccc3[nH]2)C1=N,-9%
O=C1CC(=O)C(n2cncn2)C(c2ccc(Cl)cc2)C1 (configuration not stated),3%
S=C(Nc1ccccc1)Nc1ccc(OCc2ccccc2)cc1,-6%
COc1ccc(OC)c(-n2c(-c3ccc(C)cc3)n[nH]c2=S)c1,?
O=c1c2ccsc2ncn1Cc1ccccc1F,-5%
COCCn1c(SCC(=O)Nc2cc(C)on2)nnc1-c1c[nH]c2ccccc12,-5%
CC(C)=CC(=O)OCC(=O)Nc1ccc(Cl)cn1,-10%
CC1=C(C(=O)NCc2ccccn2)C2(CCC(C)CC2)OC1=O (configuration not stated),-2%
COc1ccc(OC)c(NC(=O)C2CCN(S(C)(=O)=O)CC2)c1,-4%
Oc1c(C=C2N=c3ccccc3=N2)sc(=S)n1-c1ccccc1,-14%
O=C(c1cccc(F)c1)N1CCC2(CC1)CN(c1ccccc1)C2,-8%
COc1ccccc1N1CCN(C(c2cccs2)c2nnnn2C2CCCC2)CC1 (configuration not stated),-1%
COc1ccc(S(=O)(=O)N2CCOCC2)cc1NC(=O)c1cc2c(s1)CCCC2,?
COc1cccc(NC(=S)NCc2cccs2)c1,18µM*
CCN(CC)CCOC(=O)C(Cc1cccc2ccccc12)CC1CCCO1 (configuration not stated),-6%
Cc1ccc(S(=O)c2ccc(C)cc2)cc1,-29%

# Of the compounds above, 4 contain an NH in an aromatic ring.
SMILES,HPGD inh
CCC(C)c1c(O)nc(SCC(=O)Nc2ccccc2)[nH]c1=O (configuration not stated),-11%
CC(C)CCN1CC(O)=C(c2nc3ccccc3[nH]2)C1=N,-9%
COc1ccc(OC)c(-n2c(-c3ccc(C)cc3)n[nH]c2=S)c1,?
COCCn1c(SCC(=O)Nc2cc(C)on2)nnc1-c1c[nH]c2ccccc12,-5%

# Further results.
SMILES,HPGD inh
CC(=O)C1=C(C)NC(=O)NC1c1ccc(OC2CCCC2)cc1 (configuration not stated),-10%
CC(C)c1ccc(CNc2ccc(N3CCOCC3)cc2)cc1,-2%
Cn1ncc(N=Cc2ccccc2)c1C(=O)Nc1cccc(Cl)c1,-19%
COc1ccc2c(c1)C(=O)[C@H](OC(=O)NCc1ccco1)[C@@H](c1ccc(OC)c(Br)c1)O2,-3%
Cc1ccc(NC(=O)CSC2=Nc3ccccc3C3CC=NN23)c(C)c1 (configuration not stated),-24%
COc1cc(NC(=O)c2ccc(CNc3c(N4CCOCC4)c(=O)c3=O)cc2)cc(OC)c1,-2%
O=C(NC1CCN(Cc2ccccc2)CC1)C1CCN(S(=O)(=O)c2cccc3cccnc23)CC1,-15%
Cc1nc(NC(C)C)c2cnn(CCc3ccccc3)c2n1,-1%
O=C(NCCCNC(=O)c1ccccn1)c1ccccn1,-9%
COc1cccc(-c2nc(CSCC(=O)N3CCc4ccccc43)c(C)o2)c1,-17%
Cc1ccc(NC(=O)COC(=O)COc2ccc(Cl)cc2C)c([N+](=O)[O-])c1,-14%
CCC(C)NC(=O)C1CCN(c2nc(C)cc(C)n2)CC1 (configuration not stated),-24%
COc1ccccc1CO/N=C/NC(=O)c1c(OC)ccnc1Oc1ccc(F)cc1,-8%
COc1ccc(C(=O)N2N=C(c3cccc(OC)c3)CC2(O)C(F)(F)F)cc1 (configuration not stated),-8%
CC(SC1=NCCS1)C(=O)Nc1nnc(-c2ccc(F)cc2)s1 (configuration not stated),-16%
Cc1cc(C)n2nc(SCC(=O)N(C)c3ccccc3)nc2n1,?
Cc1ccc(-c2csc(N(CCc3ccccc3)C(=O)COc3ccccc3)n2)cc1,-15%
CC1CCCN(c2nc(NCc3ccco3)nc(N)c2[N+](=O)[O-])C1 (configuration not stated),-22%
Cn1cccc1C(=O)C(=O)Nc1cccc(Cl)c1Cl,-7%
CCOC(=O)Cc1csc(NC(=O)c2ccc(C)o2)n1,-25%
COc1ccc2[nH]c3c(=O)n(CCCCC(=O)N4CCCC4)c(=S)[nH]c3c2c1,4.5µM*
CC(C)(C)C1CCC(=NNC(=O)CN(c2ccccc2)S(C)(=O)=O)CC1 (configuration not stated),-33%
COc1ccc(-c2nc(C(N)=O)c3[nH]c(=O)n(-c4cccc(Cl)c4)c3n2)cc1OC,-16%
CCCC(=O)Nc1cc(-c2nn(C)c(=O)c3ccccc23)ccc1N1CCOCC1,-13%
Cc1cc(C)c(NC(=O)Cc2ccc(-n3cccc3)cc2)c(C)c1,-3%

# A portion taken from the entries so far, for reference:
SMILES,HPGD inh
CCCC(=O)Nc1cc(-c2nn(C)c(=O)c3ccccc23)ccc1N1CCOCC1,-13%
Cc1cc(C)c(NC(=O)Cc2ccc(-n3cccc3)cc2)c(C)c1,-3%

# Reformatted with values ahead of the structure: part of the list above.
HPGD inh,Molecule
4.5µM*,COc1ccc2[nH]c3c(=O)n(CCCCC(=O)N4CCCC4)c(=S)[nH]c3c2c1
-25%,CCOC(=O)Cc1csc(NC(=O)c2ccc(C)o2)n1
-14%,Oc1c(C=C2N=c3ccccc3=N2)sc(=S)n1-c1ccccc1
-6%,CCN(CC)CCOC(=O)C(Cc1cccc2ccccc12)CC1CCCO1 (configuration not stated)
-4%,COc1ccc(OC)c(NC(=O)C2CCN(S(C)(=O)=O)CC2)c1

# Other entries:
SMILES,HPGD inh
CCc1nc2sc3ccccc3c(=O)c2c(=O)n1CCOC,-9%
O=C(NCCN1CCOCC1)c1cc(-c2ccc(Br)cc2)on1,-19%
N#Cc1c(N)n[nH]c1CCCN,-8%
O=C(NCC1(c2ccccc2)CCCC1)c1ccc(Br)o1,-3%
CC1=C(C(=O)OC(C)C)C(c2cccs2)N2C(=O)C(C)SC2=N1 (configuration not stated),-6%
Cc1ccc(Cn2nc(C)c3cc(C(=O)OCC(N)=O)sc32)cc1,-8%
Nc1ncnc2c1ncn2[C@@H]1O[C@H](COP(=O)(O)O)[C@@H](O)[C@@H]1O,-11%
O=C(CN1CCN(Cc2ccccc2)CC1)N1CCCc2c1c(=O)oc1ccc(O)cc21,-7%
COC(=O)C1=C(C)NC2=C(C(=O)CCC2)C1c1ccsc1 (configuration not stated),-25%
C/C(=C\c1ccco1)C1Nc2cccc3cccc(c23)N1,?
O=C(c1ccco1)N(c1ccccn1)c1ccccn1,-11%
Cc1cc(NS(=O)(=O)c2ccc(NC(=O)C(C)Oc3ccc4c(C)cc(=O)oc4c3)cc2)no1 (configuration not stated),?
CCOC(=O)c1ccccc1NC(=O)c1cn(-c2ccc(C)c(C)c2)c(=O)c2ccccc12,?
O=C(c1cnccn1)N1CCC[C@@]2(CCN(c3ccncc3)C2)C1,-6%
O=C(c1ccncc1)N1CCC2(CC1)CCN(c1ccccn1)CC2,?
N#CC1=C(N)NC(SCC(=O)c2ccccc2)=C(C#N)C12CCCC2,?
O=C(COC(=O)c1cccc(Br)c1)NCCc1ccccc1,-12%
COc1ccc2[nH]c(=O)c(C(c3nnnn3C3CCCCC3)N3CCN(C)CC3)cc2c1 (configuration not stated),?
CNS(=O)(=O)c1ccc(C)cc1,-19%
CC1=C(C(=O)OCc2ccccc2)C(c2ccc(C(C)(C)C)cc2)NC(=O)N1CCCCCC(=O)O (configuration not stated),-12%&-5%
COc1ccc([N+](=O)[O-])cc1NC1CCCCC1,-21%
Cc1ccc(C(=O)Nc2ccc(Br)cc2)cc1S(=O)(=O)Nc1ccccn1,?
NS(=O)(=O)c1ccc(CCNC(=O)C2Cc3ccccc3CN2C(=O)c2ccco2)cc1 (configuration not stated),-7%
CCOc1ccc2nc(NC(=O)C3CCN(S(=O)(=O)c4cnc[nH]4)CC3)sc2c1,-13%
CCC1CCCCN1Cc1nc2c(c(=O)n(C)c(=O)n2C)n1Cc1cccc2ccccc12 (configuration not stated),-1%

# Following part:
SMILES,HPGD inh
C[C@]12CC[C@@H]3c4ccc(O)cc4[C@@H](O)C[C@H]3[C@@H]1CC[C@@H]2O,-11%
CC1(C)CCC(=O)N[C@H]1CC(=O)C[C@H]1NC(=O)CCC1(C)C,2%
Cc1cc2oc(=O)cc(-c3ccccc3)c2c(C)c1-c1ccc(F)c(Cl)c1,-2%
O=C1/C(=C\c2ccc3ccccc3c2)CCCc2ccccc21,-30%
COC(=O)CCS(=O)(=O)c1ccc(NC(C)=O)cc1,-13%
COc1ccc(/C=C/C(=O)OCC(=O)Nc2cccc(Oc3ccccc3)c2)c(OC)c1,?
CCCc1[nH]nc2c1C(c1ccc(OC)c(Cn3nc(C)c(Br)c3C)c1)C(C#N)=C(N)O2 (configuration not stated),-22%
CC(=O)Nc1cc(C(=O)NCc2ccco2)ccc1Sc1ccc(Cl)cc1,-10%
CC1(C)CC(=O)C(CC(=O)Nc2ccc(S(N)(=O)=O)cc2)=C(O)C1,-13%
Clc1ccccc1-c1nnn(Cc2ccc(-c3nn[nH]n3)cc2)n1,13µM*
COc1cccc2c1C(=O)c1ccc3ccccc3c1C2=O,-13%
COc1ccc(Br)cc1/C=c1\sc2nc(-c3ccco3)nn2c1=O,14µM*
Cc1cc(C)n2c(SCc3cccs3)nnc2n1,-21%
Nc1nc(SCc2ccc(Cl)cc2Cl)ns1,-5%
CCOC(=O)N1CCC(NC(=O)CCc2c(C)nc3nc(C)nn3c2C)CC1,1%
COCCN(C(=O)CNC(=O)c1cccs1)C(C(=O)NC1CCCC1)c1cccs1 (configuration not stated),1%
C1=C(c2ccc(-c3ccccc3)cc2)Nc2ncnn2C1c1ccco1 (configuration not stated),-24%
Cc1noc(C)c1COC(=O)c1ccccc1NC(=O)Cc1ccccc1,-11%
CCn1cnc2c(cnn2-c2ccccc2)c1=O,-18%
COc1cccc(-n2cnc(=O)c3cccnc32)c1,-7%
COCCNC(=O)Cc1ccc(F)cc1,-12%
FC(F)(F)c1nnc(-c2ccccc2)nc1Sc1ccc(Cl)cc1,-27%
O=C(CSCC(=O)NCc1ccco1)NCc1ccco1,-6%
O=C(CN(Cc1ccccc1)S(=O)(=O)c1cccc(C(F)(F)F)c1)NC1CCCCC1,-5%
Oc1ccc(Br)cc1C=Nc1ccc2c3c(cccc13)CC2,?

# (further entries)
SMILES,HPGD inh
CCn1c(CNc2ccc(Cl)cc2)nnc1SCc1ccccc1,0%
COc1ccccc1OCCC(=O)Nc1cccc(S(=O)(=O)N2CCCCC2)c1,-2%
CCN(CC)c1ccc(NC(=O)CN2CCN(S(=O)(=O)c3cc(Cl)ccc3OC)CC2)cc1,-19%
CC(=O)Nc1ccc2nc(-c3ccncc3)[nH]c2c1,?
O=S(=O)(Nc1ccc(S(=O)(=O)N2CCOCC2)cc1)c1ccccc1,2%
COc1ccc(N2CCN(S(=O)(=O)Cc3ccccc3)CC2)cc1,-3%
CC(C)CNc1ncnc2c1sc1nc(N3CCOCC3)c3c(c12)CC(C)(C)OC3,-18%
CCOC(=O)c1sc(-c2ccccc2)cc1NC(=O)Nc1ccccc1,?
Cc1ccc(S(=O)(=O)Nc2nsc(N)n2)cc1,-10%
COc1ccc(C2C(C(=O)OCC(=O)N3CCCCC3)CCC(=O)N2c2ccc(OC)cc2)cc1 (configuration not stated),-4%
CCN(CC)S(=O)(=O)c1ccc(Nc2nc3ccccc3n3nnnc23)cc1,-30%
Cc1c(N=C2NC(=O)/C(=C/c3ccc(O)cc3)S2)c(=O)n(-c2ccccc2)n1C,-23%
O=C(O)C1Cc2ccccc2CN1S(=O)(=O)c1ccc2ccccc2c1 (configuration not stated),-1%
Clc1ccc(SCc2cn3cccnc3n2)cc1,-14%
O=S(=O)(NCC1CCCO1)c1ccc(S(=O)(=O)N2CCc3ccccc3C2)cc1 (configuration not stated),-4%
CCOC(=O)C1=C(CSc2nncn2C)NC(=O)NC1c1cc(OCC)ccc1OCC (configuration not stated),-8%
CNC(=S)NNC(=O)c1sccc1C,-2%
COc1ccccc1NS(=O)(=O)c1ccc(Cl)c(NC(=O)CN2C(=O)c3ccccc3C2=O)c1,-17%
COc1ccc(NC(=O)N2CCCC3(CCN(S(=O)(=O)c4ccccc4)CC3)C2)cc1,-7%
COc1cccc(NC(=O)CSc2ncnc3c2cnn3Cc2ccccc2)c1,-29%
Cc1c(CCO)c(=O)[nH]n1C(=O)c1c(F)cccc1F,?
COc1cc(CCC(=O)OCC(=O)Nc2c(C)cc(C)cc2C)cc(OC)c1OC,-7%
CCNC(=S)NNC(=O)c1cc(C)on1,-11%
Cc1ccc(-c2nc(C3CCN(S(C)(=O)=O)CC3)no2)cc1,-8%
CC(=O)c1cccc(NC(=O)COC(=O)COc2c(Cl)cc(Cl)c3ccc(C)nc23)c1,-4%

# Random excerpt: 3 entries already listed.
SMILES,HPGD inh
Cc1c(CCO)c(=O)[nH]n1C(=O)c1c(F)cccc1F,?
CCOC(=O)C1=C(CSc2nncn2C)NC(=O)NC1c1cc(OCC)ccc1OCC (configuration not stated),-8%
CNC(=S)NNC(=O)c1sccc1C,-2%
